Screening data from PubChem BioAssay.
Calb biofilm kill: mixture kills Candida albicans biofilm cells. inhibition, % at 7.6 µM. 0.02% of 120,000 active. AID 1242. C. albicans biofilm persisters + clotrimazole, fluorescence viability; primary screen in compound mixtures of four per well;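 active = inhibition above 30.3% in the primary screen of four-compound pools, then above 30% when the compound was retested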;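 note: compounds exposed to preformed 24 h biofilms for 48 h; the number belongs to the whole pool; some results filed as inactive read as strong as hits; inactives centre near 12; 0% = biofilm with clotrimazole alone and 100% = kill control; retested singly at about 60 µM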
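Test system: C. albicans biofilms. Buffer or medium: RPMI/MOPS medium, pH 7.0. Timing: 48 h compound exposure at 37 °C. Technique: Alamar Blue fluorescence. Evaluation: percent inhibition of biofilm viability.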
Starred values were filed as active, the others as inactive. These rows are one share of the data (hit frequency here may not be typical).

Start of the listing, in advance (6 entries):
SMILES | Calb biofilm kill
COc1ccc([N+](=O)[O-])cc1-n1cccc1 | 13
Cc1ccc(-n2nnnc2Sc2nc([N+](=O)[O-])nn2C)cc1 | 10
Cc1cc(NC(=O)c2ccccc2)c(Cl)cc1N | 21
O=C(CSc1nnc(Nc2ccccc2)s1)NN1C(=O)NC2(CCCCC2)C1=O | 11
CC1CCC(C(C)C)C(OP(=O)(c2ccccc2)C(O)c2ccncc2)C1 (centres undefined) | 13
CCc1cccc(OCCCCNCCCOC)c1 | 8

The whole of this part, from the start:
SMILES | Calb biofilm kill
COc1ccc([N+](=O)[O-])cc1-n1cccc1 | 13
Cc1ccc(-n2nnnc2Sc2nc([N+](=O)[O-])nn2C)cc1 | 10
Cc1cc(NC(=O)c2ccccc2)c(Cl)cc1N | 21
O=C(CSc1nnc(Nc2ccccc2)s1)NN1C(=O)NC2(CCCCC2)C1=O | 11
CC1CCC(C(C)C)C(OP(=O)(c2ccccc2)C(O)c2ccncc2)C1 (centres undefined) | 13
CCc1cccc(OCCCCNCCCOC)c1 | 8
c1ccc(Cc2noc(CN3CCN(Cc4ccc5c(c4)OCO5)CC3)n2)cc1 | 31
COc1ccc(CNC(=O)CCSc2ccc(F)cc2)cc1OC | 5
O=C(NCCc1ccc(F)cc1)c1n[nH]c2ccccc12 | 4
Nc1nc(SCC(=O)Nc2ccc(OCc3ccccc3)cc2)n[nH]1 | 9
Cc1cccc(N2C(=O)CS/C2=N\NC(=O)c2ccc(Cl)cc2)c1C | 16
COc1ccc(C=O)cc1OS(=O)(=O)c1ccccc1[N+](=O)[O-] | 6
CC(/C=N/NC(=O)c1cccnc1)=C\c1ccccc1 | 12
Cc1ccc(NC(=O)c2ccc(S(=O)(=O)C(F)F)cc2)c(C)c1 | 16
COc1ccc(N(C(=O)c2ccco2)C(C(=O)NC2CCCC2)c2cccs2)cc1OC (centres undefined) | 12
O=[N+]([O-])c1ccc(COc2ccc(CNc3ccccc3)cc2)cc1 | 14
CCCCc1c(C)c(C#N)c2nc3ccccc3n2c1Cl | 18
O=C(Nc1ccccc1Cl)c1ccc(-c2ccccn2)s1 | 19
Cc1cccc(NC(=O)CN2CCC(NC(=O)C3CCCCC3)CC2)c1C | 4
OCCC1CN(Cc2cnc(-c3ccccc3)s2)CCN1CCc1ccccc1 (centres undefined) | 11
Cc1cccc(/C=C(\c2nc3ccccc3[nH]2)S(=O)(=O)c2ccccc2)c1 | 4
Cc1cc(C)nc(SCC(=O)Nc2ccc(S(=O)(=O)Nc3ncccn3)cc2)n1 | 0
COc1ccc(/C(N)=N/OC(=O)Cc2ccc(C)cc2)cc1 | 20
O=C(NCc1ccc(-c2csnn2)cc1)c1cccs1 | 12
COc1cc(/C=N/NC(=O)COc2ccccc2[N+](=O)[O-])ccc1OC(=O)c1ccco1 | -7

The final 4 entries of the part before are carried over, then new ones follow:
SMILES | Calb biofilm kill
Cc1cc(C)nc(SCC(=O)Nc2ccc(S(=O)(=O)Nc3ncccn3)cc2)n1 | 0
COc1ccc(/C(N)=N/OC(=O)Cc2ccc(C)cc2)cc1 | 20
O=C(NCc1ccc(-c2csnn2)cc1)c1cccs1 | 12
COc1cc(/C=N/NC(=O)COc2ccccc2[N+](=O)[O-])ccc1OC(=O)c1ccco1 | -7
CCOc1ncnc2c1[nH]c1ccccc12 | 27
c1ccc(CN2CCC(N3CCN(Cc4ccc5c(c4)OCO5)CC3)CC2)cc1 | 12
O=c1cnn([C@@H]2O[C@H](CO)[C@@H](O)[C@H]2O)c(=O)[nH]1 | 10
CN(NC(=S)Nc1ccc(OC(F)F)cc1)C(=S)Nc1ccc(OC(F)F)cc1 | 16
O=C(NCCCn1ccnc1)C(=O)NCC1OCCCN1S(=O)(=O)c1ccc(Cl)cc1 (centres undefined) | 10
Cc1cc(Cl)ccc1NC(=O)Cn1cncn1 | 3
CC1CCc2c(sc(NC(=S)NC(=O)c3ccccc3)c2C#N)C1 (centres undefined) | 20
COc1ccc(/C=C(\C)c2nc(C)c(-c3ccccc3)c(=O)[nH]2)cc1 | 35
CCSc1ccccc1C(=O)N=C1NC(=O)CC2C(=O)NCCN12 (centres undefined) | 4
O=C(NCc1cccs1)C1CC(=O)N(c2ccc(Cl)cc2)C1 (centres undefined) | 11
Cc1ccc(S(=O)(=O)N(C)CC(=O)OCC(=O)NC(=O)NC(C)C)cc1 | 3
NC1=NC2(CCCC2)N=C(Nc2ccccc2)N1 | 23
OCCNCCNCc1ccccc1OCc1ccccc1 | 2
CN(Cc1ccccc1)C(=O)c1nc2ccccn2c1CNCCOc1cccnc1 | 19
COc1cccc(N2CCN(c3ccc(N4C(=O)CCC4=O)cc3[N+](=O)[O-])CC2)c1 | 10
Cc1cc(NC(=S)NC(=O)c2ccco2)c2ccccc2n1 | 5
O=C(Nc1ccccc1)Nc1nnc(CSCc2ccccc2Cl)s1 | 7
CC(=O)c1ccc(NC(=O)C2(S(=O)(=O)c3ccccc3)CC2)cc1 | 8
Cc1cccc(C(C#N)c2ccc(Cl)nn2)c1 (centres undefined) | 18
O=C(COC(=O)c1c2c(nc3ccccc13)CCCCC2)c1ccc(Cl)s1 | 10
CC(=O)NCCNC(=O)CNC(=O)c1ccc(Cl)cc1 | 10
O=C(OCC(=O)N1CCN(Cc2ccccc2)CC1)c1ccc(Cl)cc1 | 26
CONc1nc2nonc2nc1NOC | 4
CC1C(=O)N(c2ccc(S(=O)(=O)N(C)C)cc2)C1(/C=C/c1ccccc1)C(=O)NC1CCCC1 (centres undefined) | 1
COc1ccccc1NC(=O)CCSc1nnc(-c2ccncc2)o1 | 8

(more compounds)
SMILES | Calb biofilm kill
CCS(=O)(=O)c1nc(S(=O)(=O)c2ccc(C)cc2)c(NCc2ccccn2)s1 | 0
COc1ccc(C(=O)Nc2ccc(NC(=O)c3cccs3)cc2)cc1[N+](=O)[O-] | 19
CC(=O)Oc1ccc(C2C3=C(CC(C)(C)CC3=O)Nc3cc4c(cc32)OCCO4)cc1 (centres undefined) | 17
CCn1c(-c2cc(-c3ccccc3)sc2N)n[nH]c1=S | 42
Cc1ccc(-c2nc3ccccc3c(=O)n2Cc2ccccc2)cc1 | -15
CCN(CC)S(=O)(=O)c1ccc(N2CCCCC2)c(NC(=O)/C(C#N)=C/c2ccc(OC)cc2)c1 | 13
CCC(C)NC(=O)CSc1ncnc2sccc12 (centres undefined) | 7
CC(C)=NNc1nc(-c2ccccc2)c(C)s1 | 13
CCN(C(=O)c1ccc(S(C)(=O)=O)cc1)C12CC3CC(CC(C3)C1)C2 | 16
O=C(/C=C\c1ccc(-c2cccc([N+](=O)[O-])c2)o1)N1CCOCC1 | 4
COc1ccc(NC(=O)CCSc2ccc(C)cc2)cc1 | 6
COc1ccc(F)cc1C(=O)C1CCCN(Cc2cccn2-c2ccccn2)C1 (centres undefined) | 24
COc1ccc(S(=O)(=O)N(CC(=O)NCCC(C)C)c2ccccc2)cc1OC | 24
COc1ccc(Cl)cc1NC(=O)Cn1nc(-c2ccc(C)cc2)n(C)c1=S | 8
Cc1ccc(/C=C/C(=O)NCc2cccs2)o1 | 2
O=C(Nc1cccnc1)c1cccc(F)c1 | 12
COc1cccc(CN2CCC(C(=O)N3CCN(c4ccccc4F)CC3)CC2)c1OC | 15
CC1=CC(C)(C)n2c(O)c(N=N)c3c(C)ccc1c32 | 21
COc1ccc(C2C(C(=O)/C=C/c3ccco3)=C(O)C(=O)N2CCN2CCOCC2)cc1 (centres undefined) | 14
COc1ccc(NC(=O)c2cc(Cl)ccc2Cl)c([N+](=O)[O-])c1 | 7
CCN1C(=O)/C(=C2/C=Cc3cc(C)ccc3N2CC)N(C)C1=S | 13
CC(NC(=O)CCNC(=O)c1ccccc1Cl)C1CC2CCC1C2 (centres undefined) | 10
O=[N+]([O-])c1ccc(Cc2nnc(-c3ccccc3Cl)o2)cc1 | 4
COC(=O)C1CCCN1C(=O)COc1ccc(Cl)cc1Br (centres undefined) | 13
O=[N+]([O-])c1ccc2[nH]c3nc4ccccc4nc3c2c1 | 16

More structures follow.
SMILES | Calb biofilm kill
Cc1c(C(=O)NCCSCc2cccc(C(F)(F)F)c2)cnn1-c1ccc(F)cc1 | 9
COc1ccc(NC(=O)Oc2cc(C)ccc2C(C)C)cc1 | 19
CCN(CC)S(=O)(=O)c1ccc2c(c1)C(=NO)c1cc(S(=O)(=O)N(CC)CC)ccc1-2 | 14
Cc1nc(N)[nH]c(=O)c1Oc1cccc(C(F)(F)F)c1 | 25
Cc1ccc(NS(=O)(=O)c2cc(C(=O)N3CCN(C)CC3)ccc2C)cc1C | 9
O=C(COc1ccc2ccccc2c1)N1CCN(C(=O)c2cccs2)CC1 | 19
COc1ccc(C2C(C(=O)NCCCN3CCOCC3)c3ccccc3C(=O)N2c2ccc(OC)cc2)cc1 (centres undefined) | -6
CCN(CC(=O)NC(C)(C)C)C(=O)COc1c(Cl)cc(Cl)c2ccc(C)nc12 | 23
O=C(NNc1ncnc2c1cnn2-c1ccccc1)c1ccco1 | 15
S=C(NCCc1c[nH]c2ccccc12)NC1CCCCC1 | 8
Cc1nn(-c2ccccc2)c(Cl)c1/C=N\NC(=O)c1cnccn1 | 14
COc1ccc(CN2C3CCCC2CC(NC(=O)Nc2ccccc2)C3)cc1 (centres undefined) | 13
Cc1cccc(C)c1-n1c(SCC(=O)N2CC(=O)Nc3ccccc32)nc2ccccc2c1=O | 12
N=C1S/C(=C\c2ccc(-c3cccc(Cl)c3)o2)C(=O)N1c1nccs1 | 3
COc1cccc(C2=NOC(C(=O)Nc3cc(C)on3)C2)c1 (centres undefined) | 11
NC(=O)c1ccc(Cl)c2ccccc12 | 15
CC(=O)Nc1ccc(-n2cc(-c3ccccc3)[nH]c2=S)cc1 | 0
Cc1ccc(C)c(-c2cc(C(=O)Nc3cccc(C(=O)O)c3)c3ccccc3n2)c1 | 16
O=C(/C=C/c1ccccc1Cl)N(Cc1cccs1)C1CCS(=O)(=O)C1 (centres undefined) | 20
N#C/C(=C/c1ccc(F)cc1)c1nnc(NC(=O)c2ccccc2)s1 | 10
CCCNC(=O)CC(NS(=O)(=O)c1ccc(OC)cc1)c1ccco1 (centres undefined) | 13
Cc1onc(-c2ccccc2)c1CNC(=O)Nc1ccccc1 | 29
C=CCO/N=C(/CCC)C1=C(N)CC(C)(C)CC1=O | 5
CC(C)(C)Nc1nc(OCC#N)nc(N2CCCCC2)n1 | 12
CC(C)(C)NC(=O)NCc1ccco1 | 14

New compounds follow:
SMILES | Calb biofilm kill
COc1ccc(CCNC(=O)CN(c2cc([N+](=O)[O-])ccc2OC)S(C)(=O)=O)cc1 | 1
Cc1c(Br)c([N+](=O)[O-])nn1CC(=O)N1CCN(Cc2ccccc2)CC1 | 16
C=CCn1c(O)c(C2=c3ccccc3=NC2=O)sc1=Nc1ccc(O)cc1 | 21
CN(Cc1cccs1)C(=O)CCc1c[nH]c2ccccc12 | 11
Cc1ccc(Cc2cc(C)n[nH]c2=O)cc1 | 14
COc1ccc(Nc2cc(C(=O)NCc3cccnc3)c3ccccc3n2)c(OC)c1 | -7
COc1cccc2[nH]c3c(=O)n(CCCN4CCOCC4)cnc3c12 | 17
C/C(=N/N=C1\SCC(=O)N1c1ccccc1)c1ccc(C)cc1 | 5
CC(=O)Nc1ccc(NC(=O)C(C)n2c3ccccc3c3nc(=O)cc(C)n32)cc1 (centres undefined) | 11
O=C(COC(=O)c1ccc(Cl)c(S(=O)(=O)N2CCc3ccccc3C2)c1)Nc1ncc(Cl)cc1Cl | 14
Cc1ccc(/C=N/n2c(-c3ccncc3)n[nH]c2=S)s1 | 29
O=C(O)C#Cc1cccc2ccccc12 | -4
COCCNC(=O)c1onc(CSc2cc(C)cc(C)c2)c1C(=O)NCCOC | 18
Cc1cc2n(n1)C(c1ccccc1)CC(c1ccc(Br)cc1)=N2 (centres undefined) | 13
c1ccc(OCc2nnnn2-c2ccccc2)cc1 | 17
Cc1cc(C)n(-c2cccc(Cl)c2C#N)n1 | 17
O=C(Nc1ccccc1C(F)(F)F)N1CCN(c2ccccn2)CC1 | 1
CN(C)CCCN=C(NO)c1ccc(Cl)cc1Cl | 8
N/C(=N\OC(=O)c1ccc(F)cc1)c1nonc1N | 9
Cc1ccccc1OCc1nnc(SCC(=O)N2CCc3ccccc32)n1C | 7
COc1ccccc1NC(C#N)c1ccccc1OCc1ccccc1 (centres undefined) | 17
COc1cccc(-c2nn(-c3ccccc3)cc2/C=C(\C#N)C(=O)NCCCn2ccnc2)c1 | 6
CC(=O)Nc1ccc(C(=O)OCC(=O)Nc2ccccc2F)cc1 | 6
O=C(Cc1ccccc1)Nc1ccc(NC(=O)C2CCCCC2)nc1 | 14
NNC(=O)CCN1CCN(C(c2ccccc2)c2ccccc2)CC1 | 14

Following part:
SMILES | Calb biofilm kill
CCOc1ccc(CN2CCN(CCCn3cccn3)CC2CCO)cc1 (centres undefined) | -14
Cc1ccccc1C(=O)NCC(=O)NNC(=S)NC(=O)c1ccccc1 | 20
O=C(Nc1cccc(Cl)c1N1CCOCC1)c1cccnc1Cl | 31
COc1ccc(/C(=C/Nc2cccc(Br)c2)C(C)=O)cc1OC | 36
Cc1ccc(Nc2cc(C(=O)NCCCN3CCOCC3)c3ccccc3n2)c(C)c1 | 4
COc1cc(C(=O)Nc2ccc3c(c2)N(C(=O)CN2CCN(C)CC2)c2ccccc2CC3)cc(OC)c1OC | 25
COc1cccc(C2c3[nH]c4ccccc4c3CCN2Cc2ncc[nH]2)c1 (centres undefined) | 25
COC(=O)C(Cc1ccccc1)NC(=O)C(CC(C)C)NC(=O)OC(C)(C)C (centres undefined) | 17
CCOP(=O)(c1ccccc1)C1(C#N)CC1 (centres undefined) | 13

Taken from above:
COc1cccc(C2c3[nH]c4ccccc4c3CCN2Cc2ncc[nH]2)c1 (centres undefined) – Calb biofilm kill: 25
CCOP(=O)(c1ccccc1)C1(C#N)CC1 (centres undefined) – Calb biofilm kill: 13
Cc1ccccc1C(=O)NCC(=O)NNC(=S)NC(=O)c1ccccc1 – Calb biofilm kill: 20
COc1ccc(/C(=C/Nc2cccc(Br)c2)C(C)=O)cc1OC – Calb biofilm kill: 36
